HIV Env fusion: inhibitors of HIV Env-mediated cell fusion; HeLa-JRFL Env/CEM21 cell fusion, luciferase; inhibition, % at 12.3 µM; 1.1% of 360,000 active; AID 651610;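 active means mean replicate inhibition score of at least 50 and every replicate individually at or above 50; inconclusive means only one of the two criteria met; inactive means mean below 50 and not all replicates reaching 50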;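 further: 0% = plate neutral controls and 100% = maraviroc near 300 nM; one replicate is shown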
UUG fidelity: modulators of start codon recognition fidelity in yeast; S. cerevisiae UUG-firefly luciferase reporter, luminescence/redox ratio; activity score, % at 18.7 µM; 0.13% of 350,000 active; AID 602363;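 active means replicate mean at a twofold rise or more, about +100% in these data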;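 further: firefly luciferase made from a UUG start codon reports start codon fidelity; reporter light over untreated wells divided by growth signal over untreated wells; some hits fall short of that in this replicate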
eIF4H FP inh: inhibitors of RNA binding by human eIF4H; Q15056; eIF4H fluorescence polarization binding assay; inhibition, % at 35 µM; 0.94% of 290,000 active; AID 2012;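 active means 50% or more with normal probe brightness, or confirmed in later tests; inconclusive means above 50% with abnormal brightness, or retests that disagree; inactive means below 50% or failed in later tests; about a fifth of its hits are not listed in these tables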;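 further: calls also rest on retests at 20 µM and on dose response follow-up; 0% = protein and probe with vehicle and 100% = probe without protein; strong numbers were not always called active; many hits fall short of the cut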
CSC inhib: blocks cancer stem cells; inhibition, % at 7.5 µM; 1.1% of 300,000 active; cancer stem cell-like cells viability, luminescence;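 active means mean at 75% or more and at least half the replicates too; inconclusive means mean and replicates disagree; tested in HMLE shEcad cells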;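 further: 0% = median of negative and 100% = median of positive control wells; the first replicate is given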
PABP polyA inh: PABP-poly(A) binding inhibition; P11940; PABP-poly(A) RNA binding, fluorescence polarization; inhibition, % at 35 µM; 1% of 290,000 active; AID 2014;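 active means 50% or more with normal probe brightness, or confirmed in later tests; inconclusive means above 50% with abnormal brightness, or retests that disagree; inactive means below 50% or failed in later tests; about a fifth of its hits are not listed in these tables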;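 further: calls also rest on retests at 20 µM and on dose response follow-up; controls were probe without protein and protein plus probe with vehicle; some compounds called inactive have numbers as strong as hits; many hits fall short of the cut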
Target sequence (P11940 whole entry, looked up): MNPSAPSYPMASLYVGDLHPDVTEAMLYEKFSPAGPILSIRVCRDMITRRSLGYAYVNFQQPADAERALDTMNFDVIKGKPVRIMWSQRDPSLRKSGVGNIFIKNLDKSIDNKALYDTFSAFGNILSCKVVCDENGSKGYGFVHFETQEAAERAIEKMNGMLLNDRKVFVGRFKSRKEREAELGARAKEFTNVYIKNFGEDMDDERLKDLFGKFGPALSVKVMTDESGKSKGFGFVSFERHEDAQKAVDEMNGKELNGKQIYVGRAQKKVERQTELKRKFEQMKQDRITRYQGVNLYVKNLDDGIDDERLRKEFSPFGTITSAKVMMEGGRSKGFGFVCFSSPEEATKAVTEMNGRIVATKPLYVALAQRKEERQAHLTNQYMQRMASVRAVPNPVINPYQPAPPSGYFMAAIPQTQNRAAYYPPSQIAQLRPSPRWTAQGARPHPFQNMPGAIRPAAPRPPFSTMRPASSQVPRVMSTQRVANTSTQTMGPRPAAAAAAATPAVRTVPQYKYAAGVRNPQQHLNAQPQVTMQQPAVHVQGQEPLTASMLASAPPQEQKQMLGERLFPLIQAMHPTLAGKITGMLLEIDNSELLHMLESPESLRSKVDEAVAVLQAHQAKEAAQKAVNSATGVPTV
Rce1 inh: yeast Ras-converting enzyme inhibition; yeast membranes, quenched prenylated peptide cleavage fluorescence; Q03530; 0.27% of 290,000 active; calls only;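 active means fall in fluorescence gain of 50% or more versus controls, with final raw signal at or below 3038400; inconclusive means same 50% fall but final raw signal above 3038400; inactive means fall in fluorescence gain under 50%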;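 further: plate controls were neutral control wells for no effect and wells lacking membranes for full effect; tested at 10 µM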
Target sequence (Q03530 whole entry, looked up): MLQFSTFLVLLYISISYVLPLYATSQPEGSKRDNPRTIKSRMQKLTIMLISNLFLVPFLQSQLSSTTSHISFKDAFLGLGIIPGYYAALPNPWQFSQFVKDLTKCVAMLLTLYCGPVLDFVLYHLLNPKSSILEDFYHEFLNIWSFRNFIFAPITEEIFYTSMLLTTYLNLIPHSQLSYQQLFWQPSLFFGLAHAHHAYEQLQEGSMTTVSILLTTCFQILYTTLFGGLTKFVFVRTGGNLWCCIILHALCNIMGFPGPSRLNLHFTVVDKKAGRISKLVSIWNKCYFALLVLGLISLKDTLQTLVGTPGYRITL
MT1-MMP act inh: inhibitors of human MT1-MMP activation. P50281. HT1080 RFP-PRO-GFP cells, GFP/RFP ratio fluorescence, overnight; percent of plate control window, DMSO zero. GFP/RFP ratio change, % at 20 µM. 0.061% of 360,000 active. AID 651647;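 active means GFP/RFP ratio change of at least 30% with cell ATP level not reduced by more than half and red fluorescence within 50% of control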; further: strong numbers were not always called active
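Test system: HT1080 RFP-PRO-GFP cells; Benchmarks: DMSO and RFP-L50D-GFP cell wells; Timing: cells overnight before dosing, compound overnight, 37 °C, 5% CO2; Compound: one 20 µM compound dose with 1% DMSO; Read-out: GFP/RFP fluorescence ratio.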
eIF4H FP inh retest: recorded beside eIF4H FP inh, whose call it bears; inhibition, %; compound at 20 µM; confirmation average;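 mean of two retest wells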
PABP polyA inh retest: further read-out of PABP polyA inh, marked with its call; inhibition, %; compound at 20 µM; confirmation repeats;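 mean of two retest wells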
MT1-MMP act inh RFP: second read-out of MT1-MMP act inh, no call of its own (marks repeat the call); RFP signal change, %; measured here: RFP expression control read;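 0 = vehicle wells; hits needed this value within 50% of zero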
Starred values were filed as active, the others as inactive; i = inactive; ? = inconclusive; · = no result given; + = active, no number. These rows are one share of the data. The share of hits here may be higher or lower than overall.

SMILES	HIV Env fusion	UUG fidelity	eIF4H FP inh	CSC inhib	PABP polyA inh	Rce1 inh	MT1-MMP act inh	MT1-MMP act inh RFP	others
O=c1[nH]c(=O)n(CCC2=CCCCC2)c(O)c1C=NCc1cccnc1	·	-38	2	-9	-4	i	-2	-5
Cc1cc(C(=O)N=Nc2c(O)n(C)c3ccccc23)c(C)o1	-60	-9	6	13	2	i	-1	8
COc1ccc(-c2nn(CCC#N)cc2C(=O)Nc2ccccc2Br)cc1	5	-5	0	3	3	i	-2	-2
O=c1[nH]c(=S)n(CCC2=CCCCC2)c(O)c1C=NCCCn1ccnc1	17	-28	48	27	38	i	-9	16
CN(C)C(=O)Oc1ccc(-c2cn3cc(C(F)(F)F)ccc3n2)cc1	-49	-10	4	42	-5	i	6	4
Cc1nn(Cc2ccc(Cl)cc2Cl)c(Cl)c1C(=O)Nc1ccc(OC(F)F)cc1	10	-2	-7	15	-15	i	0	-6
COc1cc2c(cc1OC)[C@@]13CCN4CC5=CCO[C@H]6CC(=O)N2[C@H]1[C@H]6[C@H]5C[C@H]43	·	-1	-9	-5	4	i	0	1
Cc1ccccc1-n1c(O)c(C=Nc2ccc(N(C)C)cc2)c(=O)[nH]c1=O	-8	-18	-2	-7	-1	i	-11	6
Nc1ccc(Sc2ccc(N)cc2)cc1	24	-14	·	·	·	·	5	5
O=C(O)c1cccc2nc3ccccc3nc12	·	-43	33	14	22	i	-6	4
O=C1CN=C(c2cccc(Br)c2)c2cc(Br)ccc2N1	2	·	5	39	11	i	3	4
O=[N+]([O-])c1ccc(N2CCNCC2)cc1Sc1ccccn1	-10	·	3	-1	-3	i	-11	-5
CCCCn1c(O)c(C(C)=NCCc2ccccc2)c(=O)[nH]c1=O	·	-13	-4	-3	7	i	0	-3
CNCCc1nc(N)n[nH]1	-60	-23	-1	4	19	i	3	4
CC(C)COc1ccc(C2(C#N)CC[N+](C)(C)CC2)cc1	·	-13	1	-16	3	i	1	9
Cc1cc(OCC(=O)N2CCC(C(N)=O)CC2)c2c3c(c(=O)oc2c1)CCCC3	·	10	1	-8	-2	i	-3	-2
O=C1NC(=O)N(c2cccc(F)c2)C(=O)/C1=C/c1ccc(N2CCOCC2)cc1	-24	-7	42	-13	22	i	2	7
O=C(c1cc2c(s1)-c1ccccc1OC2)N1CCC2(CC1)OCCO2	-233	-18	-4	43	-8	i	-7	-9
CNC(=O)Oc1ccccc1OC(C)C	7	-7	·	·	·	·	-1	7
CCCCCc1nc2c(c(=O)c3ccccc3n2C)c(=O)n1C1CCCCCC1	-29	·	-8	149*	-8	i	-40	-44
COC(=O)C1=CO[C@@H](C)[C@@H]2CN3CC[C@@]4(C(=O)Nc5ccccc54)[C@@H]3C[C@H]12	-32	-14	4	-10	4	i	0	5
CCS(=O)(=O)N1CCC(C(=O)N2CCC3(CC2)OCCO3)CC1	·	-11	-5	-7	-12	i	2	6
CN1C(=O)c2ccccc2Sc2ccc(C(=O)N3CCC4(CC3)OCCO4)cc21	-85	-2	2	-13	-6	i	4	6
Cc1ccc(OP(N)(=O)Oc2ccc(C)cc2)cc1	-2	-11	-4	-19	-6	i	1	-1
Cn1c(NN=O)nc2ccccc21	-9	·	3	115*	-1	i	2	-6
Cc1ccc(N2C(=O)/C(=C/c3ccc(CN(CCC#N)S(C)(=O)=O)o3)C(=O)NC2=S)cc1C	·	·	20	-19	25	i	·	·
CCCCCSc1cc(OC)c(CCNC)cc1OC	·	1	-9	30	8	i	5	-1
COc1ccc([C@@H](O)[C@@H](N)c2ccccc2)cc1	-4	-11	·	-9	·	i	1	-4
Cc1ccc(-n2c(-c3cccs3)nc3ccccc3c2=O)cc1	·	-32	-5	78*	-13	i	-1	-4
Cc1cc(C)cc(N2C(=O)NC(=O)/C(=C\c3cc(C)n(C)c3C)C2=O)c1	1	·	?	-4	?	i	0	4
COCCNC(=O)N1[C@H]2CC[C@@H]1C(C(=O)OC)=C(c1cccc(C#N)c1)C2	8	-10	·	-25	·	·	-1	4
COc1cc2c(cc1OC)CC[N+](C)=C2	·	14	10	8	49	i	4	2
Cc1ccccc1OCCCn1cc(C(=O)C(=O)N2CCOCC2)c2ccccc21	8	·	3	-6	2	i	0	-7
CCCCCCn1c(=O)c(C(=O)Nc2ncccc2C)c(O)c2ccccc21	83*	-19	6	6	0	i	-4	-10
CC/C=C/CC(=O)N[C@@H](c1ccccc1)[C@@H](O)C(=O)O[C@H]1C[C@@]2(O)[C@@H](OC(=O)c3ccccc3)C3[C@](C)(C(=O)[C@H](OC(C)=O)C(=C1C)C2(C)C)[C@@H](O)C[C@H]1OC[C@@]31OC(C)=O (some centres not stated)	·	9	3	64	-5	·	-1	-11
O=C(/C=C/c1ccc(Cl)cc1)NC(=S)N1C[C@H]2C[C@H](C1)c1cccc(=O)n1C2	·	-7	-15	-7	6	i	1	4

Retrieved one by one from above:
SMILES	HIV Env fusion	UUG fidelity	eIF4H FP inh	CSC inhib	PABP polyA inh	Rce1 inh	MT1-MMP act inh	MT1-MMP act inh RFP	others
CN1C(=O)c2ccccc2Sc2ccc(C(=O)N3CCC4(CC3)OCCO4)cc21	-85	-2	2	-13	-6	i	4	6
CCCCCc1nc2c(c(=O)c3ccccc3n2C)c(=O)n1C1CCCCCC1	-29	·	-8	149*	-8	i	-40	-44
O=C1NC(=O)N(c2cccc(F)c2)C(=O)/C1=C/c1ccc(N2CCOCC2)cc1	-24	-7	42	-13	22	i	2	7
O=c1[nH]c(=S)n(CCC2=CCCCC2)c(O)c1C=NCCCn1ccnc1	17	-28	48	27	38	i	-9	16
CN(C)C(=O)Oc1ccc(-c2cn3cc(C(F)(F)F)ccc3n2)cc1	-49	-10	4	42	-5	i	6	4
Cc1ccc(N2C(=O)/C(=C/c3ccc(CN(CCC#N)S(C)(=O)=O)o3)C(=O)NC2=S)cc1C	·	·	20	-19	25	i	·	·
O=c1[nH]c(=O)n(CCC2=CCCCC2)c(O)c1C=NCc1cccnc1	·	-38	2	-9	-4	i	-2	-5

Following part:
SMILES	HIV Env fusion	UUG fidelity	eIF4H FP inh	CSC inhib	PABP polyA inh	Rce1 inh	MT1-MMP act inh	MT1-MMP act inh RFP	others
CC/C(=C\C=C\[C@@H]1C=C[C@@H]2CCC[C@H]2[C@@H]1C(=O)c1ccc[nH]1)[C@@H]1O[C@@H]([C@@H](C)C(=O)O)CC[C@@H]1C	·	1	32	90*	1	i	·	·
C=CCN1C(=O)NC(=O)/C(=C/c2cnc(SC)nc2)C1=O	·	67	4	-6	12	i	-2	6
CN(C)C(=O)Oc1cccc2c(OC(=O)N(C)C)cccc12	-21	-10	3	-2	0	i	7	8
O=C(NCc1ccccn1)c1ccccc1Cl	·	-17	-4	-14	-5	i	-1	3
O=C(CNS(=O)(=O)c1cccs1)N1CCC2(CC1)OCCO2	·	-7	-15	3	9	i	-3	-2
CC1CCC(N(C)C2CCN(C)CC2)CC1 (configuration not stated)	-11	-7	-4	2	11	i	2	2
COc1ccc(CC[n+]2cc(/N=C(\C)[O-])on2)cc1OC	·	-22	-4	2	0	i	1	-3
Nc1ccc2c3c(cccc13)CC2	-62	-2	70*	29	36*	i	-184	10	eIF4H FP inh retest=94*;PABP polyA inh retest=79*
C=CCn1c(O)c(C(CC)=Nc2ccc(N(CC)CC)cc2)c(=O)[nH]c1=O	34	4	0	18	-6	+	-4	-10
COc1ccc(-n2nnnc2C(c2ccccc2)N2CCC(n3c(=O)[nH]c4ccccc43)CC2)cc1 (configuration not stated)	-127	-5	·	·	·	·	-11	-6
O=C1NC(=O)N(c2ccccc2)C(=O)/C1=C\c1ccc2c3c(cccc13)CC2	·	·	30	-3	-6	i	·	·
CCOc1ccc(N2C(=O)NC(=O)/C(=C/c3cnc(SC)nc3)C2=O)cc1	6	·	-8	-23	-3	i	6	5

A stretch taken from the entries so far, for reference:
SMILES	HIV Env fusion	UUG fidelity	eIF4H FP inh	CSC inhib	PABP polyA inh	Rce1 inh	MT1-MMP act inh	MT1-MMP act inh RFP	others
C=CCn1c(O)c(C(CC)=Nc2ccc(N(CC)CC)cc2)c(=O)[nH]c1=O	34	4	0	18	-6	+	-4	-10
COc1ccc(-n2nnnc2C(c2ccccc2)N2CCC(n3c(=O)[nH]c4ccccc43)CC2)cc1 (configuration not stated)	-127	-5	·	·	·	·	-11	-6
O=C1NC(=O)N(c2ccccc2)C(=O)/C1=C\c1ccc2c3c(cccc13)CC2	·	·	30	-3	-6	i	·	·
CCOc1ccc(N2C(=O)NC(=O)/C(=C/c3cnc(SC)nc3)C2=O)cc1	6	·	-8	-23	-3	i	6	5

Next structures
SMILES	HIV Env fusion	UUG fidelity	eIF4H FP inh	CSC inhib	PABP polyA inh	Rce1 inh	MT1-MMP act inh	MT1-MMP act inh RFP	others
C=CCn1c(O)c(C=NC2CCN(Cc3ccccc3)CC2)c(=O)[nH]c1=O	-2	-3	-5	-13	1	i	5	2
Cc1cc(C)nc(-n2c(C)nc3cc(Cl)ccc3c2=O)c1	·	-11	0	-7	-8	i	8	9
CCCNC(=O)N1[C@H]2CC[C@@H]1C(C(=O)OC)=C(c1ccc(C(C)=O)cc1)C2	-7	-4	·	-13	·	·	3	1
N#CC1=C(N)Oc2c(c(=O)oc3ccccc23)C1c1cccnc1 (configuration not stated)	-55	·	1	9	2	i	-2	1
O=c1c2ccccc2ncn1-c1ccc([N+](=O)[O-])c(C(F)(F)F)c1	6	-5	7	-10	-10	i	-7	-3
O=c1[nH]c(=O)n(CCc2ccccc2)c(O)c1C=NCCN1CCNCC1	·	0	4	4	3	i	-1	3
C[C@]12CCC3C(CC[C@H]4[C@H](O)[C@H](O)CC[C@]34C)C1CC[C@@H]2O (some centres not stated)	3	-14	·	·	·	·	3	3
COc1ccc(C(=O)C2(C)N(O)C(C)C(c3cccs3)=[N+]2[O-])cc1 (configuration not stated)	·	1	5	-6	-1	i	3	0
Cc1ccc(NP(=O)(Oc2ccccc2F)Oc2ccccc2F)cc1C	?	-12	1	72	-4	i	-12	-15
COc1ccccc1CC(=O)N1CCN(CCc2ccccc2)CC1	-91	1	-2	1	0	i	3	3
CCN(CC)P(c1n(C)cc[n+]1C)N(CC)CC	-6	-20	1	-8	8	i	-1	7
C=CCn1c(O)c(C(C)=NCc2ccco2)c(=O)[nH]c1=O	24	-15	2	·	-4	i	7	5
O=C(Cc1cc(=O)oc2cc(O)ccc12)NN=Cc1ccc(N(CCCl)CCCl)cc1	24	-17	·	·	·	·	-4	-7
COC(=O)C1=C(c2ccc(-c3ccccc3)c(F)c2)C[C@@H]2CC[C@H]1N2C(=O)NCCNC(C)=O	-20	-7	·	-9	·	·	2	0
CC(=O)c1cn(Cc2ccc(F)cc2)c2ccccc12	29	-7	-9	7	4	i	3	-20
CN1Cc2cnnn2-c2ccccc2C1c1ccccc1 (configuration not stated)	25	-3	·	·	·	·	1	4
C=CCn1c(O)c(C(C)=NCCC2=CCCCC2)c(=O)[nH]c1=O	-83	-11	-8	-5	0	i	6	2
O=C1/C(=C/c2cccnc2)N2CCC1CC2	-5	·	-5	-10	3	i	1	1
CCCc1nc2ccccc2c(=O)n1-c1ccc(OC)cc1	-4	-19	-8	5	-3	i	-3	-4
Nc1ccc(Br)cc1	-6	13	·	·	·	·	2	-3
COc1ccc(CN2CCCC(C(=O)c3sccc3C)C2)cc1O (configuration not stated)	25	·	-8	35	0	i	-3	0
COC1=CC=C2[C@H]3Cc4ccc(OC)c5c4[C@@]2(CCN3C)[C@H]1O5	19	-11	-9	-6	-1	i	-14	1

Screening results from PubChem BioAssay.
